Bioassay records: PubChem BioAssay, several laboratories
RanGTP-Impb inh = inhibitors of RanGTP-importin-beta interaction, primary screen, biochemical, FRET, CFP-Ran, YFP-importin-beta, homogeneous. actives 1.1% (n = 300,000). inhibition, % (concentration not given with the values). AID 2216. cell-free CFP-Ran/YFP-importin-beta FRET ratio;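 active = most replicates above 15%; inconclusive = exactly half above 15%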;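 also: 0% = DMSO wells and 100% = Ran loaded with GDP instead of GTP; wells of about 40 µL received 100 nL stock; the first replicate is given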
LANA-H2A inh = blocks KSHV LANA binding to histone H2A/H2B. Q9QR71. actives 0.6% (n = 320,000). cell-free LANA-H2A/H2B peptide, fluorescence polarization. inhibition, % (test concentration not listed). AID 2629; in the data active = inhibition mostly above about 10%, no sharp cut-off; inactive = mostly below about 6.7%;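 also: stock transfer was 7.5 nL into about 10 µL; 0% = median of vehicle wells and 100% = median of positive control wells; one replicate is shown; the record names a cut of 25% in any replicate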
Beta2AR agonist = human beta-2 adrenergic receptor agonism by FAP; actives 0.43% (n = 340,000); Am2.2-beta2AR cells, FAP receptor internalization, flow cytometry; reference of the scale not given here; response, % (concentration not given with the values);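 active = response above a set limit, near 3 SD of response in nonfluorescent compounds, cut at about 42% in these data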;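 also: stock transfer was 100 nL into about 11 µL; a reference agonist was the positive control; negative values mostly stem from fluorescent compounds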
Vif A3G = HIV-1 Vif–A3G interaction blockers – biochemical, TR-FRET, GST-Vif 1-94, biotin-A3G peptide, dose response retest, primary screen (AID 1117319). TR-FRET GST-Vif / biotin-A3G peptide binding; higher % means a stronger effect; test concentration not given here; strong numbers were not always called active. inhibition, %; hits with a dose series show IC50 in µM. actives 0.57% (n = 260,000);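 active = above the screen mean plus three standard deviations and confirmed in dose response; inconclusive = results disagree or hit not tested in dose response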;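 also: Vif residues 1-94 fused to GST binding biotinylated APOBEC3G peptide 110-148; 0% = full assay without inhibitor and 100% = GST in place of GST-Vif; retest series ran down from 100 µM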
Calb FLC = C. albicans growth modulation with fluconazole; C. albicans CaCi-2 (fluconazole-resistant clinical isolate) + fluconazole, Alamar Blue growth, 48 h; growth inhibition, % (test concentration not listed); actives 0.57% (n = 300,000); AID 1979;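 active = most replicates above 75%; inconclusive = exactly half above 75%; inactive = most below 75%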;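 also: all wells also contain fluconazole at 8 µg/ml as a sub-toxic cotreatment; 0% = median of DMSO wells and 100% = median of geldanamycin control wells; wells of about 8 µL received 7.5 nL stock; the first replicate is given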
HNF4A DNA FP = change in binding of human HNF4 alpha to DNA | P41235 | HNF4a-FITC DNA binding, fluorescence polarization, 1 h | activity change, % at 10 µM | actives 0.3% (n = 360,000) | AID 1224865; in the data active = activity change above about 30%, passing the limit was not always enough;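 also: controls were the assay level and a saturating level of protein; the project sought stronger binding though the title names inhibitors; some compounds called inactive have numbers as strong as hits; positive values seem to mean higher polarization but the record does not say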
Target sequence (P41235 whole entry, looked up): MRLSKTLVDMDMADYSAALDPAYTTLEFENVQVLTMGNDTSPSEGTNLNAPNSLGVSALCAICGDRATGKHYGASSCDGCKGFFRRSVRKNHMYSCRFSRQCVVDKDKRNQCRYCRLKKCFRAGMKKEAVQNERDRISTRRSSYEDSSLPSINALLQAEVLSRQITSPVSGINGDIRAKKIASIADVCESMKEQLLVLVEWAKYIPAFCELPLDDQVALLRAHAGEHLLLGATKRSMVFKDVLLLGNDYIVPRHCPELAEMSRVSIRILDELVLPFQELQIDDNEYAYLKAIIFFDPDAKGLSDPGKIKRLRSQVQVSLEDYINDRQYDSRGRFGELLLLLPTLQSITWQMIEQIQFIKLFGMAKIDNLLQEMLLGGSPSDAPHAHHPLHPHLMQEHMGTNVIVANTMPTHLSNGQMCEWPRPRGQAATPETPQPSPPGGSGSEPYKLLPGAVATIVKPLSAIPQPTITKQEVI
ALR H2O2 inh = blocks human ALR sulfhydryl oxidase activity | purified ALR, DTT oxidation, H2O2 HRP-luminol luminescence | inhibition, % (concentration not given with the values) | actives 3.8% (n = 290,000) | AID 485317;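 active = mean and each replicate at 75% or more; inconclusive = only one of the two met; inactive = neither met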;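 also: stock transfer was 7.5 nL into about 7.5 µL; 0% = neutral wells and 100% = wells with inactivated enzyme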
Target sequence (P55789 whole entry, looked up): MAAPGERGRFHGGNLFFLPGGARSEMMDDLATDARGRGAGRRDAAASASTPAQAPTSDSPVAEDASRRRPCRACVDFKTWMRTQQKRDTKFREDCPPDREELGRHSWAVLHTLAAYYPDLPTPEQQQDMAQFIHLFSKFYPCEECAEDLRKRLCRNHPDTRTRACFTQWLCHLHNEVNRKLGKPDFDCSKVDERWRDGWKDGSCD
An asterisk follows results filed as active; u = inconclusive; x = not tested or not shown.

SMILES	RanGTP-Impb inh	LANA-H2A inh	Beta2AR agonist	Vif A3G	Calb FLC	HNF4A DNA FP	ALR H2O2 inh
O=C(NCC1CCCCC1)c1cc2ccccc2cc1O	8.9	-1.8	9.8	-4.0%	3.8	1.6	-4.9
O=C(NCC1(c2ccccc2)CCOCC1)c1ccc(Br)o1	-0.3	-2.6	-4.8	27.5%	1.0	2.2	2.1
Cc1nn(-c2ccccc2)c(Cl)c1/C=C(\CC(=O)O)c1nc2ccccc2s1	2.1	-0.8	-4.5	6.3%	-4.4	-1.0	0.5
CCn1c(=S)[nH]c2cc(S(=O)(=O)N3CCOCC3)ccc21	x	6.1	9.7	2.0%	x	5.1	67.1
Cn1c(-c2ccc(Br)o2)nc2ccccc21	9.7	0.7	-2.9	-4.3%	-8.3	3.0	3.0
CS(=O)(=O)N(Cc1ccccc1)c1ccccc1C(=O)O	2.1	1.4	2.9	-4.9%	4.2	-0.1	-5.5
CCc1ccc(-n2c(CSc3nnnn3-c3ccccc3)nc3ccccc3c2=O)cc1	1.7	-4.3	6.3	-1.8%	0.6	-0.6	-24.3
COCCC(=O)N1CCC(Oc2ccc(C(=O)N3CCC[C@H]3CO)cc2)CC1	u	2.5	9.0	x	-6.6	-0.8	-13.2
O=C(Cc1ccc(Cl)cc1)c1c[nH]c(C(=O)NCCCN2CCOCC2)c1	7.0	0.5	-7.4	-5.9%	17.1	8.0	x
COc1ccc(S(=O)(=O)N2CCOCC2)cc1C(=O)NC1CCCCC1	2.8	0.2	-1.7	0.9%	-9.9	2.9	-3.1
CCOC(=O)Nc1ccc(S(=O)(=O)Nc2cc(C)nc(C)n2)cc1	-1.4	-4.4	-0.2	-1.9%	1.0	1.6	-5.4
CCc1cccc(C)c1NC(=O)CN1C(=O)NC(C)(CCC(C)C)C1=O (centres undefined)	x	1.4	-0.4	-18.2%	x	3.1	-2.9
Cn1cc(S(=O)(=O)N2CCCC2)cc1C(=O)O	x	2.0	-7.0	x	x	-1.1	x
O=c1cc(-c2ccccc2)oc2cc(OCc3ccccc3)cc(O)c12	-3.5	2.3	-9.7	5.8%	1.3	0.9	-1.4
CN(Cc1ccccc1NCC(=O)Nc1ccccc1C#N)C1CCCCC1	3.7	x	6.3	-8.8%	-16.4	2.9	11.1
COc1ccc(C(=O)/C=C/c2ccc(-c3ccccc3)cc2)cc1CSCC(=O)O	-1.0	-3.3	7.2	x	8.1	-7.4	99.2*
CCCCCCC(=O)Nc1nc(C)c(-c2csc(Nc3ccc(Cl)cc3)n2)s1	-2.2	3.1	16.1	-1.9%	-12.1	6.4	-0.5
Cc1cc2nc(CS(=O)(=O)c3ccccc3)cc(=O)n2[nH]1	0.7	2.4	-1.0	2.5%	-3.9	-1.8	-11.4
CC(C)n1c(O)c(N=NC(=O)CNC(=O)CCc2ccccc2)c2ccccc21	2.7	-0.3	6.4	x	1.6	1.4	-16.1
CCCN(CCC)C(=O)CSc1nc2n[nH]c(C)c2c(=N)n1-c1ccc(OC)cc1	-0.7	2.4	5.8	-3.6%	-3.9	-2.4	2.7
Cn1cccc1C(=O)NC(=O)COC(=O)c1cc(Cl)ccc1[N+](=O)[O-]	-2.5	-4.0	-4.0	-2.8%	u	5.0	-14.8
COCCn1c(C)cc(C(=O)COC(=O)CCS(=O)(=O)c2ccc(C)cc2)c1C	-4.2	4.4	0.2	-4.0%	1.4	-2.9	-2.0
CCC(=O)N1CCN=C1SCc1ccccc1Cl	0.9	2.6	-25.5	18.5%	-7.2	0.6	99.7*
OCCN(CCO)CC(O)CN1c2ccccc2Sc2ccccc21 (centres undefined)	8.8	-0.6	-6.5	-0.3%	0.8	-4.5	98.7*
Cc1nc(N)sc1C(=O)Nc1ccccc1	3.0	4.4	12.2	5.4%	-8.3	3.3	-1.4
COc1ccc(-n2c(C)nn(C)c2=O)cc1	u	3.2	6.0	0.8%	-19.5	2.1	1.9
O=C1/C(=C/C=C/c2ccco2)SC(=S)N1c1ccc(O)cc1	-2.9	7.0	22.4	2.57µM*	1.8	-2.9	26.6
CCN(CC)C(=O)CC(c1ccc(OC)cc1)c1c(OC)cc(OC)c2ccc(=O)oc12 (centres undefined)	3.6	-2.2	2.1	x	27.8	-1.0	x
CCN1CCN(CCCNC(=O)c2cc3c(s2)-c2ccccc2OC3)CC1	1.9	-0.7	0.7	x	-1.2	-1.8	-9.3
COC(=O)c1sc2nc(CSc3nc4ccc(C)cc4[nH]3)[nH]c(=O)c2c1C	-3.7	2.7	8.1	u	3.2	24.8	-0.6
O=C(c1cccs1)n1nc(-c2ccc(Cl)cc2)nc1NCc1ccco1	-6.7	1.7	16.9	-10.0%	2.2	1.1	-8.3
CC(c1ccccc1)n1c(CCCO)nc2ccccc21 (centres undefined)	-1.6	0.6	1.3	x	3.0	-0.7	-4.9
COc1ccc(CNC(=O)COC(=O)c2cccs2)cc1	-0.6	-1.6	5.8	2.5%	-2.3	1.6	-2.4
CNC(=O)CN(C)S(=O)(=O)c1ccc(OC)c(Cl)c1	-2.3	-3.1	-3.8	-4.9%	-6.6	-0.3	-2.0
O=C(NC(=S)N1CCCCCC1)c1ccccc1Cl	u	-0.3	6.8	-3.5%	-12.2	-2.9	x
COc1cc2[nH]c(=O)n(CCC(=O)NCc3cccnc3)c(=O)c2cc1OC	2.1	0.5	-1.9	0.4%	2.3	-2.0	x
CCOC(=O)c1c(C)[nH]c(C)c1C(=O)COC(=O)[C@@H](NC(=O)c1ccco1)C(C)C	x	8.2	4.1	-6.0%	x	1.9	5.2
COc1ccccc1N1CCN(CC(O)COc2ccc(C)cc2C)CC1 (centres undefined)	4.3	-2.4	-8.6	-2.6%	8.3	2.4	-0.2
Cc1ccc(N2C(N)=C(C#N)C(c3cccnc3)C3=C2CC(C)(C)CC3=O)cc1 (centres undefined)	-3.6	-0.1	7.6	12.7%	-11.9	0.4	x
Cc1c(C#N)c(N=CN(C)C)c(C(=O)c2ccc(Br)cc2)n1-c1ccc(Cl)cc1	7.6	7.6	-9.9	-3.3%	13.6	-0.1	-5.7
CCOC(=O)N1CCN(c2ccc(O)cc2)CC1	-6.7	-0.1	1.0	16.8µM*	-23.4	-0.3	99.1*
COc1ccc(S(=O)(=O)N2CCN(Cc3cccc(OC)c3OC)CC2)cc1	-0.3	3.1	-3.8	x	-7.7	-2.3	-0.5
CCCCCCCCCCCCCCCC(=O)OCC1OC(n2ccc(N)nc2=O)C(O)C1O (centres undefined)	x	x	-13.2	-5.4%	x	-5.3	x
O=C(CSc1ccc(-c2ccc(F)cc2)nn1)NC1CCCCC1	0.7	-0.4	-20.1	x	-0.1	0.3	-1.7
CC1=C(C#N)C(c2cccnc2)C2=C(CCCC2=O)N1 (centres undefined)	x	-6.3	2.2	0.4%	x	8.0	-12.8
CCc1nnc(NC(=O)CN2CCN(Cc3ccccc3C)CC2)s1	1.0	-1.0	-5.0	-9.5%	7.1	2.1	-0.5
CCCCC(=O)OCC(=O)c1ccc(OCC)cc1	-0.9	1.2	3.6	x	-7.5	-0.6	2.1
CN=C(C)/C(C(=O)OC)=C(/O)c1ccc(Cl)cc1Cl	-0.6	-0.8	0.6	u	-2.0	4.4	-5.7
O=C(CCC(=O)N(CC(=O)NC1CCCCC1)Cc1ccco1)Nc1nccs1	2.8	-7.5	-1.6	16.3%	-16.0	2.9	3.0
O=S(=O)(c1ccc(F)cc1)N1CCc2ccccc21	4.3	-11.4	-159.1	x	-3.3	76.2*	-6.2
COC(=O)CC1Oc2ccccc2N(Cc2ccc(C)cc2)C1=O (centres undefined)	u	-0.9	2.4	1.1%	0.6	1.6	2.5
O=C1CSc2ccc(C(=O)O)cc2N1	1.1	0.3	1.5	10.3%	-13.8	0.8	7.8
COc1ccc(C2=NO[C@@H]3C(=O)N(c4cccc(C)c4C)C(=O)[C@H]23)cc1OC	5.0	6.4	1.0	2.7%	4.5	-3.0	x
CCN(CC(=O)NCc1ccc(F)cc1)C(=O)c1ccc(C)o1	0.4	-7.8	2.1	x	-1.8	-0.4	1.5
O=C(OCc1ccccc1)N1CCOCCN(C(=O)OCc2ccccc2)CCOCC1	-2.8	8.2	0.3	-5.8%	-3.4	-3.8	-6.5
COC(=O)NCC12CC3CC(C1)CC(CNC(=O)OC)(C3)C2	3.7	-1.6	5.5	-7.3%	2.5	1.0	3.7
CCC(C)NC(=O)CN(c1ccc2c(c1)OCO2)S(=O)(=O)c1c(C)n[nH]c1C (centres undefined)	-0.8	0.9	3.2	1.0%	-6.1	-0.5	32.8
O=C(Nc1cccn(Cc2c(Cl)cccc2Cl)c1=O)c1ccc(Cl)cc1Cl	0.7	-0.2	0.1	-0.9%	49.8	0.2	-2.6
O=C(NCc1ccco1)c1cc(-c2cccnc2)nc2ccc(Cl)cc12	-0.4	0.9	-2.2	1.2%	-1.7	-3.8	0.0
OC(CN1CCOCC1)c1ccc(F)cc1 (centres undefined)	0.4	-0.8	-0.9	x	-3.7	0.2	-13.0

An excerpt of the results above, for reference:
SMILES	RanGTP-Impb inh	LANA-H2A inh	Beta2AR agonist	Vif A3G	Calb FLC	HNF4A DNA FP	ALR H2O2 inh
COc1ccc(C2=NO[C@@H]3C(=O)N(c4cccc(C)c4C)C(=O)[C@H]23)cc1OC	5.0	6.4	1.0	2.7%	4.5	-3.0	x
CCN(CC(=O)NCc1ccc(F)cc1)C(=O)c1ccc(C)o1	0.4	-7.8	2.1	x	-1.8	-0.4	1.5
O=C(OCc1ccccc1)N1CCOCCN(C(=O)OCc2ccccc2)CCOCC1	-2.8	8.2	0.3	-5.8%	-3.4	-3.8	-6.5
COC(=O)NCC12CC3CC(C1)CC(CNC(=O)OC)(C3)C2	3.7	-1.6	5.5	-7.3%	2.5	1.0	3.7

Quoted at random: 4 entries already listed
SMILES	RanGTP-Impb inh	LANA-H2A inh	Beta2AR agonist	Vif A3G	Calb FLC	HNF4A DNA FP	ALR H2O2 inh
COc1ccc(C2=NO[C@@H]3C(=O)N(c4cccc(C)c4C)C(=O)[C@H]23)cc1OC	5.0	6.4	1.0	2.7%	4.5	-3.0	x
CCC(C)NC(=O)CN(c1ccc2c(c1)OCO2)S(=O)(=O)c1c(C)n[nH]c1C (centres undefined)	-0.8	0.9	3.2	1.0%	-6.1	-0.5	32.8
O=C(CCC(=O)N(CC(=O)NC1CCCCC1)Cc1ccco1)Nc1nccs1	2.8	-7.5	-1.6	16.3%	-16.0	2.9	3.0
O=C(OCc1ccccc1)N1CCOCCN(C(=O)OCc2ccccc2)CCOCC1	-2.8	8.2	0.3	-5.8%	-3.4	-3.8	-6.5

The list goes on.
SMILES	RanGTP-Impb inh	LANA-H2A inh	Beta2AR agonist	Vif A3G	Calb FLC	HNF4A DNA FP	ALR H2O2 inh
COC(=O)CCS(=O)(=O)c1cc(Cl)ccc1Cl	-1.5	-0.5	2.0	3.5%	-10.1	-4.0	95.4*
COc1ccc(C2/C(=C(\O)c3ccc4c(c3)OCCO4)C(=O)C(=O)N2c2nc(C)c(C(C)=O)s2)cc1 (centres undefined)	0.1	-0.8	-5.6	x	4.9	1.2	7.5
COc1ccc(NC(=O)CN2C(=O)c3cccc4cccc2c34)cc1OC	5.0	-3.8	0.5	-0.2%	-12.6	-4.0	-21.5
O=C(N/N=C/c1cc(Br)c(O)c(Br)c1O)c1cccnc1	9.9	0.8	-3.0	22.4%	x	-4.5	41.6
